High-throughput results (PubChem)
RE007 growth inh: less growth of the S. pombe RE007 Vpr strain; S. pombe RE007 Vpr strain, BacTiter-Glo ATP luminescence, 24 h; control for the full effect not named in the record; Potency, µM (series often up to 92.2 µM), without a hit: at the highest dose activity change, negative = less growth; 0.21% of 360,000 active; AID 651644; active = well fitted falling curve with a large enough effect; inconclusive = small, poorly fitted or top-dose-only effect; inactive = no such curve, though single readings can be large or run the other way;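 further: on the % scale 0 is the no-effect control and ±100 the full control effect; nearly all actives have a fitted effect of over 50% in size; the assay follows cell death caused by Vpr and the record does not say whether a fall means rescue or toxicity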
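Fission yeast strain RE007, carrying one chromosomally integrated HIV-1 vpr copy, was seeded at OD 0.01 in PMG+AL medium with 23 nL pinned compound. After 24 h at 30 °C and 99% humidity, viability was read by BacTiter-Glo luminescence.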
Marburg entry inh: blocks Marburg virus binding to or entry into cells | Potency, µM (doses to about 37.8 µM), for inactives: at the top dose activity change, negative = inhibition, most hits filed as inhibitors | Marburg virus pseudotyped entry inhibition, cell reporter; control for the full effect not named in the record; about a third of the inactives were read at about 46 µM | 1.8% of 300,000 active | AID 540276; active = well fitted inhibition curve with a large enough effect; inconclusive = small, poorly fitted or top-dose-only effect, or effect the other way; inactive = flat fitted curve, though single readings scatter; tested in HEK293 cells; about a fifth of its hits are not listed in these tables; further: on the % scale 0 is the no-effect control and ±100 the full control effect; luciferase read-out
NS1 function inh: inhibitors of influenza NS1 protein function | S. cerevisiae slowed by influenza A NS1, growth recovery by OD600 | Potency, µM (doses to about 46.1 µM), without a hit: at the top dose activity, positive = more growth | 0.4% of 270,000 active | AID 2326; further: actives are rising curves; nearly all actives have a fitted effect of over 50% in size
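Growth recovery, yeast-based: influenza A NS1 expressed in S. cerevisiae causes slow growth, and suppressors are detected by OD600. The parent strain without NS1 is used as positive control.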
2A StopGo: lowers the luciferase signal of an FMDV 2A StopGo reporter | human cells with a luciferase reporter of 2A StopGo recoding; control for the full effect not named in the record | Potency, µM (highest dose often 57.9 µM), for inactives: at the top dose signal change, negative = less light | 1.2% of 410,000 active; active = well fitted falling curve with a large enough effect; inconclusive = small, poorly fitted or top-dose-only effect; inactive = no such curve, though single readings can be large or run the other way; tested in HEK293T cells; further: on the % scale 0 is the no-effect control and ±100 the full control effect; nearly all actives have a fitted effect of over 45% in size; luciferase light after 4 h
LASV entry inh: Lassa virus entry inhibition; Lassa virus pseudotype entry inhibition, cell reporter; control for the full effect not named in the record; Potency, µM (highest dose often 37.9 µM), for the others: at the highest dose activity change, negative = inhibition, actives largely listed as inhibitors; 1.2% of 300,000 active; AID 540256; active means well fitted inhibition curve with a large enough effect; inconclusive means small, poorly fitted or top-dose-only effect, or effect the other way; inactive means flat fitted curve, though single readings scatter; tested in HEK293 cells; further: on the % scale 0 is the no-effect control and ±100 the full control effect; nearly all actives have a fitted effect of over 50% in size; luciferase read-out
Cruzain inh noDet: cruzain (T. cruzi) inhibition without detergent; P25779; purified cruzain, Z-FR-AMC fluorescence, no detergent; Potency, µM, without a hit: max response, negative = inhibition, usual class: inhibitors; 2.3% of 200,000 active; active means well fitted curve in the direction sought with a large enough effect; inconclusive means small, poorly fitted or top-dose-only effect, or another doubt; inactive means no such curve, though single readings can be large; an effect the other way counts as inactive or inconclusive;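 further: plate controls were enzyme without inhibitor for no effect and buffer without enzyme for full effect; nearly all actives have a fitted effect of over 40% in size; top concentration of the series not given in the record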
Target sequence (P25779 123-467 limits assumed): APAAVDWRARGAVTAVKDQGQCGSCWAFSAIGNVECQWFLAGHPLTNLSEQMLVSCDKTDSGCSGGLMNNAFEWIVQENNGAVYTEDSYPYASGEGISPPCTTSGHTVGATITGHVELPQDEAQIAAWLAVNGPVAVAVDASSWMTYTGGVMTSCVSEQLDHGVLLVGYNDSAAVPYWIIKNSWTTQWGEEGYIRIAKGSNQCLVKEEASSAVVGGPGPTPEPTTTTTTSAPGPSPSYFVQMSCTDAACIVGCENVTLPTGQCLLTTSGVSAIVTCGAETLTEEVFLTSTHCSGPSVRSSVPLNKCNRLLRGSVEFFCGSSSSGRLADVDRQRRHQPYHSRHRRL
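Detergent-free condition (0.00005% Triton X-100) in acetate buffer pH 5.5 with DTT. 1.5 nM enzyme and compound were pre-mixed 15 min, then 2 uM Z-FR-AMC substrate added; reaction progress from fluorescence change between first and third reads (60 s).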
SARS PLpro yeast: SARS-CoV PLP inhibition in yeast; Potency, µM (doses to about 32.9 µM), without a hit: top-dose activity, positive = growth rescue; 0.19% of 330,000 active; S. cerevisiae expressing SARS-CoV PLpro, growth rescue; control for the full effect not named in the record; further: 0% is about no effect; nearly all actives have a fitted effect of over 55% in size; growth read by luminescence after 48 h
Cruzain Triton: blocks cruzain activity in presence of Triton detergent; P25779; purified cruzain, Z-FR-AMC fluorescence, 0.01% Triton; Potency, µM, for inactives: max response, negative = inhibition, usual class: inhibitors; 0.43% of 200,000 active; active means well fitted curve in the direction sought with a large enough effect; inconclusive means small, poorly fitted or top-dose-only effect, or another doubt; inactive means no such curve, though single readings can be large; an effect the other way counts as inactive or inconclusive;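 further: plate controls were neutral wells for no effect and buffer without enzyme for full effect; nearly all actives have a fitted effect of over 40% in size; top concentration of the series not given in the record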
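Z-FR-AMC hydrolysis (2 uM substrate) by cruzain (1.5 nM) monitored kinetically at ex 360/em 450 nm after 15 min room-temperature compound exposure; 0.01% Triton X-100, pH 5.5, 5 mM DTT.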
Starred values were filed as active, the others as inactive; u = inconclusive; x = not tested or not shown; & = joins results of further samples; [ ] = dose if it differs, or a comment. Unless noted, the call rests on the fitted dose curve; in most records, active means well fitted rising curve with a large enough effect; inconclusive means small, poorly fitted or top-dose-only effect; inactive means no such curve, though single readings can be large or run the other way. Potency means the concentration at half of the fitted maximal effect.

Below each compound – LASV entry inh	Marburg entry inh	NS1 function inh	2A StopGo	Cruzain inh noDet	Cruzain Triton	SARS PLpro yeast	RE007 growth inh
NS(=O)(=O)c1ccc(NC(NC(=O)c2cccnc2)C(Cl)(Cl)Cl)cc1 (centres undefined)
  x	x	-1.4%	-17.2%	x	x	-13.6%	6.9%
Cc1ccc(NC(=O)CN(C)C(=O)Cn2ccsc2=N)cc1
  29.7%[46.1 µM]	12.0%[46.1 µM]	x	-12.9%	x	x	-2.5%	-1.2%
O=C(O)Cc1ccc(Oc2ncc(C(F)(F)F)cc2Cl)cc1
  1.1%	u	2.7%	-8.3%	x	x	1.3%	-14.0%
COc1ccc(-n2cc(CNC(C)c3ccncn3)c(-c3cccc(F)c3)n2)cc1 (centres undefined)
  -3.7%	u	4.1%	-8.3%	x	x	0.4%	-23.8%
COC(=O)C1=C(C)NC(=O)NC1c1ccc2c(c1)OCO2 (centres undefined)
  x	x	0.6%	-1.0%	x	x	1.6%	13.7%
CC(c1n[nH]c(=S)n1-c1ccc(F)cc1)N1CCCCC1 (centres undefined)
  u	u	x	-3.1%	x	x	-3.3%	1.0%
CC(=O)c1cccc(Nc2ccc3cc(S(=O)(=O)N4CCC(C)CC4)ccc3n2)c1
  5.2%[46.1 µM]	x	x	0.0%	u	-2.8%	x	x
CCCN1C(=O)SC(CC(=O)Nc2ccccc2C)C1=O (centres undefined)
  -2.7%	-6.7%	-28.8%	-1.0%	10.3%	1.3%	u	2.6%
O=C(CSCc1ccccc1Cl)N/N=C/c1ccco1
  1.4%	3.5%	-5.9%	32.0%[activator]	x	x	-1.7%	13.8%
CCOC(=O)c1c(NC(=O)CSC2=NN3CCCC(=O)N=C3S2)sc2c1CCCCC2
  19.0%	1.5%	-1.8%	-45.1%	10.7%	-3.4%	1.0%	-21.2%
O=C(CN1C(=O)c2cccc([N+](=O)[O-])c2C1=O)NCc1ccccc1
  5.9%[46.1 µM]	2.2%[46.1 µM]	6.0%	-8.2%	x	x	1.4%	-2.9%
Cc1cc(C(=O)CN2C(=O)c3ccccc3S2(=O)=O)c(C)n1CC1CCCO1 (centres undefined)
  0.461µM*	0.58µM*	0.2%	0.282µM*	7.8%	-0.8%	-1.8%	40.4%
COc1cc2c(cc1OC)CN(C(=O)c1sc(-c3cnccn3)nc1C)CC2
  x	x	-0.7%	-6.7%	x	x	0.7%	-10.9%
CC(=O)Nc1ccc(S(=O)(=O)/N=C2\C(=O)c3ccccc3C([O-])=C2n2cc[n+](-c3ccccn3)c2)cc1
  x	x	0.3%	7.9%	x	x	-1.1%	-22.8%
O=C(Cc1csc2ccccc12)NCc1ccc(F)cc1
  5.7%[46.1 µM]	10.1%[46.1 µM]	x	41.6%[activator]	5.7%	-12.2%	x	x
CC1=C(C(=O)OCc2ccccc2)C(c2ccccc2Cl)NC(=O)N1C (centres undefined)
  -15.8%	-0.3%	-37.2%	17.8µM*	x	x	-12.7%	26.6%
CCCCNC(=O)CNC(=O)c1nn(-c2ccc(OC)cc2)c(=O)c2ccccc12
  x	x	5.6%	-17.3%	x	x	0.7%	5.3%
COc1ccc(C2C(=O)N(C3CCCCCC3)CC(=O)N2Cc2ccc(C)cc2)cc1OC (centres undefined)
  -25.8%[46.1 µM]	x	x	-18.1%	24.3%	-0.2%	x	x
CN(Cc1cccc2cnccc12)C(=O)c1cc(COc2ccc(F)cc2Cl)on1
  u	-32.5%[46.1 µM]	-11.7%	-20.9%	x	x	17.5%	-8.6%
CC(C)(C)c1nc2c(C#N)c(-c3ccc(Cl)cc3)ccn2n1
  -24.3%	u	-49.5%	u	-4.7%	-3.4%	-18.3%	-15.7%
CCCC(=O)Nc1cccc(NC(=O)c2ccc3c(c2)OCCO3)c1
  -0.7%	-8.8%	-65.3%	0.0%	-0.5%	-0.2%	-1.7%	-10.4%
COc1cc(/C=C2/C(=N)N3N=C(C)SC3=NC2=O)ccc1OS(=O)(=O)c1ccc(C)cc1
  0.7%[46.1 µM]	0.8%[46.1 µM]	12.0%	-16.0%	x	x	-0.3%	-26.1%
CCC(=O)Nc1cccc(NC(=S)NC(=O)c2cccs2)c1
  u	u	3.7%	25.1%	-10.8%	-4.5%	-3.7%	-5.2%
CCOC(=O)c1sc2ccccc2c1OC(=O)c1ccccc1
  u	1.1%	-5.2%	-4.1%	-1.5%	-4.3%	-11.5%	4.4%
Cc1ccc(NC(=O)N2CCN(c3cc(-c4noc(C)n4)ccc3C)CC2)c(F)c1
  u	x	x	u	3.9%	-2.3%	x	x
CCC(C)[C@H](NC(=O)NCCCN1CCOCC1)C(=O)OC (some centres undefined)
  9.3%	15.0%	4.9%	-13.6%	10.6%	-3.9%	3.3%	8.6%
CCOC(=O)N1CCN(c2cc(N)c([N+](=O)[O-])cc2F)CC1
  -1.0%	-17.9%	-17.4%	0.0%	-0.9%	-3.8%	3.0%	-10.4%
O=C1Cc2ccccc2C(=O)N1OCc1ccc(Cl)cc1Cl
  15.3%	u	x	26.1%	x	x	0.2%	-1.8%
O=C(CSc1nc(-c2ccco2)cc(C(F)(F)F)n1)NCc1cccs1
  3.1%	4.0%	-0.7%	-9.7%	1.8%	0.9%	-7.2%	0.0%
Cc1nn(C)c(C)c1P(=S)(c1c(C)nn(C)c1C)N(C)C
  0.8%	9.7%	-4.6%	x	4.2%	3.5%	2.9%	-6.5%

3 entries from above, arranged by formula weight, high to low.
Below each compound – LASV entry inh	Marburg entry inh	NS1 function inh	2A StopGo	Cruzain inh noDet	Cruzain Triton	SARS PLpro yeast	RE007 growth inh
CC(=O)Nc1ccc(S(=O)(=O)/N=C2\C(=O)c3ccccc3C([O-])=C2n2cc[n+](-c3ccccn3)c2)cc1
  x	x	0.3%	7.9%	x	x	-1.1%	-22.8%
Cc1ccc(NC(=O)CN(C)C(=O)Cn2ccsc2=N)cc1
  29.7%[46.1 µM]	12.0%[46.1 µM]	x	-12.9%	x	x	-2.5%	-1.2%
CC(C)(C)c1nc2c(C#N)c(-c3ccc(Cl)cc3)ccn2n1
  -24.3%	u	-49.5%	u	-4.7%	-3.4%	-18.3%	-15.7%

Later entries.
Below each compound – LASV entry inh	Marburg entry inh	NS1 function inh	2A StopGo	Cruzain inh noDet	Cruzain Triton	SARS PLpro yeast	RE007 growth inh
O=C(NCc1cccnc1)c1ccc(COc2ccc(Cl)cc2Cl)o1
  x	x	-1.8%	3.3%	x	x	-0.3%	0.1%
COc1ccc(Nc2c3c(nc4c(-c5ccccc5)c(C)nn24)CCC3)cc1
  14.4%	u	17.0%	-19.2%	u	-12.4%	-31.1%	49.2%
CCC(C)(C)n1nnnc1CN1CCN(c2nc3cc(OC)ccc3cc2C#N)CC1
  u	-22.7%	-7.6%	u	u	-8.9%	-0.9%	9.2%
COC(=O)C1C(c2ccc(OC)cc2)C(C(=O)OC)S(=O)(=O)C(CCN2CCCCC2)S1(=O)=O (centres undefined)
  u	15.9%	x	-4.6%	x	x	0.1%	-13.2%
Cc1ccccc1NC(=O)c1ccc(S(=O)(=O)C(F)F)cc1
  7.8%	28.6%	8.0%	-22.8%	5.2%	-2.5%	3.4%	0.1%
CC1CCCCN1C(=O)NC12CC3CC(CC(C3)C1)C2 (centres undefined)
  10.4%	13.4%	-3.7%	4.8%	-26.0%	1.2%	1.8%	-6.1%
Cc1ccc(C(=O)NN2C(=O)/C(=C/c3cn(C)c4ccccc34)SC2=S)cc1
  u	3.5%	17.9%	6.4%	10µM*	0.6%	-8.9%	-8.0%
OCCC1CN(Cc2cc3c(cc2Cl)OCO3)CCN1C1CCCC1 (centres undefined)
  x	x	6.8%	-19.4%	x	x	0.2%	-0.7%
CC(C)c1ccccc1NC(=S)N1CCN(Cc2ccc3c(c2)OCO3)CC1
  15.6%	-3.4%[46.1 µM]	-1.1%	-10.4%	x	x	5.9%	0.6%
CN1/C(=C\C=C(/C#N)C(=O)Nc2ccccc2F)C(C)(C)c2ccccc21
  u	8.1%	11.3%	-0.3%	0.2%	-9.3%	4.9%	13.0%
O=C(Nc1ccc(OCC(=O)N2CCOCC2)cc1)c1cc(F)c(F)cc1Cl
  26.0%[46.1 µM]	-14.0%[46.1 µM]	-5.1%	24.8%	x	x	0.7%	-4.2%
COCCN(C(=O)CCC(=O)Nc1ccccn1)C(C(=O)NCCC(C)C)c1ccc(OC)cc1 (centres undefined)
  -0.4%	1.1%&1.1%	-5.2%	1.7%	27.9%	3.7%	3.5%	-15.7%
O=C(c1ccc(N2C(=O)C3C4CC(C(Br)C4Br)C3C2=O)cc1)N1CCCCC1 (centres undefined)
  4.2%	4.6%	-5.5%	-24.6%	x	x	3.5%	-13.8%
CCOC(=O)c1cc(-c2ccc(OC)cc2)nn1Cc1ccccc1
  1.9%[46.1 µM]	u	x	82.4%[activator]	-9.2%	5.3%	x	x
Cc1nn(CCOc2ccc(Br)cc2)c(C)c1[N+](=O)[O-]
  0.6%[46.1 µM]	u	x	-26.3%	x	x	-3.2%	12.7%
COC(=O)c1ccc(NC(=O)c2c(Br)cnn2C)cc1
  x	x	-2.1%	3.5%	x	x	-1.8%	-14.2%
Cc1nn(C2CCS(=O)(=O)C2)c(C)c1C=O (centres undefined)
  27.2%	5.8%[46.1 µM]	x	4.2%	x	x	1.5%	-0.3%
CCNS(=O)(=O)c1ccc(CCC(=O)N2CCN(c3cc(Cl)ccc3C)CC2)cc1
  u	u	-5.6%	15.8µM*	x	x	2.2%	9.5%
Cc1nc(C)n(CCNS(=O)(=O)c2ccc(C)c(C)c2)n1
  -0.7%[46.1 µM]	13.5%[46.1 µM]	-3.5%	17.9%	x	x	0.1%	0.6%
Cc1cc(C)c2cc(CN(CCO)Cc3nnnn3Cc3ccccc3)c(=O)[nH]c2c1
  -8.7%	-28.7%	-33.1%	-14.7%	13.9%	4.1%	29.1%	-5.7%
COCCCNC(=O)CCCn1c(=O)c2ccccc2n(Cc2cccc([N+](=O)[O-])c2)c1=O
  -5.4%	19.8%[46.1 µM]	x	-11.3%	x	x	-2.7%	-3.9%
